KCNQ2 pot: enhances the rat KCNQ2 potassium channel. O88943. CHO-K1 KCNQ2, FluxOR thallium flux fluorescence; stronger effect = higher value. B-score at 10 µM. actives 0.54% (n = 310,000). AID 2239;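 active means fluorescence ratio B-score at least 3 SD of library B-scores, with initial fluorescence B-score within 3 SD, cut at about 5.3 in these data; same plate scores as AID 2156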;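 further: B-score of peak minus minimum over baseline fluorescence ratio after K+ and Tl+ stimulus; positive B-score means potentiation of KCNQ2 with more thallium influx and brighter signal; only the inactives scoring about 0 or higher are listed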
Target sequence (O88943 whole entry, looked up): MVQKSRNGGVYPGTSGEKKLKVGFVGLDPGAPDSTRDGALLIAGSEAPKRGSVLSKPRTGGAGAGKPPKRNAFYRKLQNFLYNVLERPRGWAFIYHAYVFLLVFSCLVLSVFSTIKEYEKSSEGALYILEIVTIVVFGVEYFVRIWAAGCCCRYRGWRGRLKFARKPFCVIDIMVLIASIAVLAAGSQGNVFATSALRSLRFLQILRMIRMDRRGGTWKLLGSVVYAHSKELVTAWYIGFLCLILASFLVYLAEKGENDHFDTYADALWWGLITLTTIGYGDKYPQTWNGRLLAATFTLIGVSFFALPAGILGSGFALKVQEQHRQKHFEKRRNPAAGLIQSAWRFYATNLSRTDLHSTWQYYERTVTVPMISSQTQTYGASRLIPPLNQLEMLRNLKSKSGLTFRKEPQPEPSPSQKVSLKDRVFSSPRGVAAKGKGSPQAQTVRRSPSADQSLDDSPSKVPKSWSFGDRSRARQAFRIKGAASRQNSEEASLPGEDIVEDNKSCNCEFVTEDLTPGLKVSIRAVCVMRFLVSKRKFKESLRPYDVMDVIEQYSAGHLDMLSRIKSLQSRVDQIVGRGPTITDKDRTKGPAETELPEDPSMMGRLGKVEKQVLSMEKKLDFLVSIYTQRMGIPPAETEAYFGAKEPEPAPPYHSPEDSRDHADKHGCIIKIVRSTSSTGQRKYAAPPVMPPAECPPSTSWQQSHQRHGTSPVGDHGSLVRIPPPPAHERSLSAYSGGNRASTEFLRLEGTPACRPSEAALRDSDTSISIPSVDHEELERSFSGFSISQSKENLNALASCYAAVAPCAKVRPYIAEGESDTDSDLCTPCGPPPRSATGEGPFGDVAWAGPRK
KCNQ2 pot baseline: further read-out of KCNQ2 pot, marked with its call; B-score; compound at 10 µM; measured here: initial fluorescence intensity artifact check;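 brightness before thallium and not channel activity; 0 = typical well and far values either way flag optical interference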
An asterisk follows results filed as active. Only part of the results is shown; count on the stated rates, not on these rows.

Below each compound – KCNQ2 pot	KCNQ2 pot baseline
CC1(C)Cc2c(sc3nc4n(-c5ccccc5)c(=O)c(CCC(=O)O)nn4c(=O)c23)CO1
    1.92	1.51
COc1ccc(OC)c(S(=O)(=O)n2ccnc2C(C)C)c1
    0.63	1.07
O=C(COC(=O)c1ccccc1[N+](=O)[O-])NC(=O)c1ccccc1
    0.74	0.17
COc1ccc(C2=NS(=O)(=O)N(C)C(C(=O)NCc3ccc4c(c3)OCO4)=C2)cc1OC
    2.4	-0.05
COc1cccc2cc(C(=O)NNC(=O)c3ccc(Br)cc3)c(=O)oc12
    1.21	-1.31
COc1ccc(OC)c(N=c2oc3c(OC)cccc3cc2C(=O)NCc2ccco2)c1
    0.29	2.25
CC(=O)N1CCc2cc(S(=O)(=O)CCC(=O)N(C)Cc3ccco3)ccc21
    0.34	-0.33
S=C(N/N=C/c1ccc2c(c1)OCO2)NC1CC2CCC1C2 (centres undefined)
    0.7	-4.56
O=C1CCC/C1=C\Nc1ccc(Cl)c([N+](=O)[O-])c1
    2.22	0.2
CC(NC(=O)[C@H](C)NC(=O)N1CCn2c1nc1ccccc12)c1ccccc1 (some centres undefined)
    0.42	0.01
COc1cccc(C(C(=O)NC2CCCC2)N(C(=O)c2csnn2)C2CC2)c1 (centres undefined)
    1.66	-1.33
C=CCn1c(C(CC)CC(C)(C)O)n[nH]c1=S (centres undefined)
    1.19	-0.5
Cc1cccc(NC(=S)NC(=O)c2cccs2)n1
    1.52	0.13
CCOc1ccc(C(=O)NCC(=O)OCC(=O)N2C(C)CCCC2C)cc1 (centres undefined)
    0.98	-0.34
O=C(CCc1ccccc1)NCc1ccc(F)cc1
    2.37	-1.36
CCCCc1nnc(NC(=O)C(C)Sc2nc(O)c(Cc3ccccc3)c(=O)[nH]2)s1 (centres undefined)
    0.18	0.65
CC(C)(O)C1=NOC(c2ccccc2)C1 (centres undefined)
    0.72	3.72
Cc1ccc(NC(=O)CC2SCCNC2=O)cc1[N+](=O)[O-] (centres undefined)
    0.56	-0.42
COc1ccc(-c2[nH]ncc2C2N=C(N)Nc3nc4ccccc4n32)cc1 (centres undefined)
    0.55	-0.86
COC(=O)c1cccc(NC2CC(=O)N(c3ccc(OC)c(OC)c3)C2=O)c1 (centres undefined)
    0.19	0.09
CCOc1ccc(CNC(=O)CN2C(=O)CSc3ccc(S(=O)(=O)N4CCOCC4)cc32)cc1OC
    0.43	0.55
COc1ccc(C(CNC(=O)c2cccc3cccnc23)N(C)C)cc1 (centres undefined)
    2.61	1.19
O=C(/C=C/c1ccco1)Oc1cc(Br)cc(/C=N/NC(=O)c2ccccc2O)c1
    0.38	-0.03
COc1ccc(/C=C2\SC(=O)N(CCC(=O)N(C)C3CCS(=O)(=O)C3)C2=O)cc1 (centres undefined)
    2.11	-0.16
CC1CN(c2ccccc2)C(=O)CS1 (centres undefined)
    0.52	0.03
O=C(O)c1ccccc1S(=O)(=O)CC(=O)N1CCCCC1
    1.01	2.79
CNS(=O)(=O)c1cccc(C(=O)NCC(C)(C)N2CCCCC2)c1
    0.61	-0.08
COc1ccccc1OC(=O)c1ccc(SC)cc1OC
    0.19	-0.01
CC1CCN(S(=O)(=O)c2cc(C(=O)Nc3ccccn3)ccc2Br)CC1
    0.67	0.35
O=C1c2ccccc2NC(c2ccccc2)N1c1ccc(O)cc1 (centres undefined)
    1.71	-0.6
O=C(/C=C/c1ccc([N+](=O)[O-])cc1)NCCSc1ccccc1
    1.26	-0.65
CCOC(=O)NNC(=O)C12CC3CC(CC(C3)C1)C2
    0.25	-0.4
COc1cc(OC)cc(C(=O)NCCOc2ccccc2)c1
    2.01	-0.61
CCCCn1c(N)c(N(CC)C(=O)CCc2ccccc2)c(=O)[nH]c1=O
    0.39	-0.12
CCn1ncc(/C=C/C(=O)Nc2c(C)nn(CC)c2C)c1C
    0.45	0.2
S=c1[nH]nc(-c2ccccn2)n1/N=C/c1ccccc1
    0.36	-1.29
O=C(Nc1ccc2c(c1)CCC2)c1cccc(F)c1
    7.35*	0.62*
CC(=O)CSc1nnc(-c2cnccn2)n1-c1ccccc1
    1.46	0.8
COc1cccc(Nc2nc3ccccc3n3cnnc23)c1
    0.76	-1.26
CN(Cc1cn(-c2ccccc2)nc1-c1ccc(Cl)cc1)C(=O)CCC(=O)O
    0.61	0.06

Individual results from the results shown:
KCNQ2 pot result of `CNS(=O)(=O)c1cccc(C(=O)NCC(C)(C)N2CCCCC2)c1` stands at 0.61
KCNQ2 pot baseline result of `O=C(/C=C/c1ccco1)Oc1cc(Br)cc(/C=N/NC(=O)c2ccccc2O)c1` stands at -0.03
KCNQ2 pot result of `CCn1ncc(/C=C/C(=O)Nc2c(C)nn(CC)c2C)c1C` stands at 0.45
KCNQ2 pot result of `CC(=O)CSc1nnc(-c2cnccn2)n1-c1ccccc1` stands at 1.46
KCNQ2 pot baseline result of `COc1ccc(C(CNC(=O)c2cccc3cccnc23)N(C)C)cc1` (centres undefined) stands at 1.19

A different layout for part of the listing above.
> CCOc1ccc(CNC(=O)CN2C(=O)CSc3ccc(S(=O)(=O)N4CCOCC4)cc32)cc1OC
- KCNQ2 pot = 0.43
- KCNQ2 pot baseline = 0.55
> O=C(O)c1ccccc1S(=O)(=O)CC(=O)N1CCCCC1
- KCNQ2 pot = 1.01
- KCNQ2 pot baseline = 2.79
> CNS(=O)(=O)c1cccc(C(=O)NCC(C)(C)N2CCCCC2)c1
- KCNQ2 pot = 0.61
- KCNQ2 pot baseline = -0.08
> CC1CN(c2ccccc2)C(=O)CS1 (centres undefined)
- KCNQ2 pot = 0.52
- KCNQ2 pot baseline = 0.03

Other entries
Below each compound – KCNQ2 pot	KCNQ2 pot baseline
O=C(NCc1ccncc1)c1cc(C(=O)C2CCCCC2)c[nH]1
    0.42	-2.26
CN1CCCN(C(=O)c2cccc3ccccc23)CC1
    0.99	0.47
O=C1CN(C(=O)c2ccccc2)C(c2ccccc2)c2cc(Cl)ccc2N1 (centres undefined)
    0.5	0.89
C/C(=N\NC(=S)NC1CCCCC1)c1ccccc1
    0.07	-2.19
Cc1cccc(OCCOC(=O)C2CCN(S(=O)(=O)c3cccs3)CC2)c1
    0.05	0.7
CCOc1cc(OCC)cc(C(=O)Nc2cccc(C(C)=O)c2)c1
    0.6	0.11
CC1CCCC(C)N1C(=O)COc1ccc(F)cc1 (centres undefined)
    1.05	0.04
COCCN(C(=O)CSc1n[nH]c(-c2ccc(OC)cc2)n1)c1c(N)n(Cc2ccccc2)c(=O)[nH]c1=O
    0.85	0.56
CN(C)CCCC1Sc2ccccc2Sc2ccccc21 (centres undefined)
    0.67	1.41
O=C1CCCCN1CCc1c[nH]c2ccccc12
    0.04	1.61
Cc1ccccc1NC(=O)c1snc2c(=O)[nH]cnc12
    1.64	-0.34
Cc1nn(CC(=O)Nc2ccc3c(c2)OCO3)c(C)c1[N+](=O)[O-]
    0.78	0.7
Cc1ccc(Nc2nc(N)nc(CN3CCN(C)CC3)n2)cc1
    0.94	0.84
NC(=O)C1CCCN(S(=O)(=O)c2ccc3ccccc3c2)C1 (centres undefined)
    0.01	-1.02
COc1cccc(NC(=O)CSc2nnc(Cn3nnc4ccccc43)n2C)c1
    0.04	0.77
Cc1cccc2nc(CNC(=O)CC3C(=O)NCCN3Cc3cccc(F)c3)cn12 (centres undefined)
    0.26	2.62
CCOc1c(Nc2ccc(C(C)C)cc2)c(=O)c1=O
    1.7	-0.23
O=C(c1cccs1)N(Cc1ccco1)Cc1cc2ccccc2[nH]c1=O
    0.1	-2.18
COC(=O)Cn1c(=NC(=O)c2ccc(OC)cc2)sc2cc(OC)ccc21
    0.3	1.45
CCC12CN(C(=O)c3ccc(OC)cc3)CC(CC)(CN(C(=O)c3ccc(OC)cc3)C1)C2=O
    0.14	0
Cc1c(NC(=O)C(C)OC(=O)c2cccc(S(=O)(=O)N3CCOCC3)c2)c(=O)n(-c2ccccc2)n1C (centres undefined)
    0.05	-0.63
C=CCn1c(SCc2cc(=O)n3ccsc3n2)nc2ccccc2c1=O
    0.57	-2.5
CC1Cc2cc(/C(O)=C3/C(=O)C(=O)N(CCCN(C)C)C3c3ccncc3)ccc2O1 (centres undefined)
    0.65	-0.49
Cc1ccc(NC(=O)C(C)OC(=O)Cc2c[nH]c3ccccc23)cc1S(=O)(=O)N1CCOCC1 (centres undefined)
    1.14	0.53
CSc1nc2nc3c(c(=O)n2[nH]1)CCCC3
    0.93	0.01
CCc1cccc2c(C(=O)CSc3nncn3-c3ccc(OC)cc3)c[nH]c12
    1.04	0.14
CC(C)(C)C(=O)CSc1ncnc2sc3c(c12)CCC3
    3.53	-0.97
C=CCn1c(SCC(=O)NC2CCS(=O)(=O)C2)nnc1-c1cc2c(s1)CCC(CC)C2 (centres undefined)
    1.92	-1.94
CS(=O)(=O)N1CCCC(C(=O)NCCCN2CCN(Cc3ccccc3)CC2)C1 (centres undefined)
    0.42	0.59
O=C(O)c1ccc(N2CCCCCC2)c(N2C(=O)c3ccccc3C2=O)c1
    0.42	-0.12
COc1ccc(-n2nnnc2SCC(=O)N2CCOCC2)cc1
    0.89	-1.6
Cc1ccc(NC(=O)CSc2nnc(COc3ccccc3C)o2)cc1
    0.06	-1.06
CC(C)NC(=O)c1ccccc1NC(=O)CN(c1ccc2c(c1)OCO2)S(C)(=O)=O
    0.18	0.87
Cc1c(C(=O)Nc2ccc(Oc3ccccc3)cc2)sc2nc3n(c(=O)c12)CCC3
    0.82	0.01
OCCN(Cc1ccccc1)CC(O)COc1ccc2c(c1)OCO2 (centres undefined)
    0.05	-0.44
COCCNc1nnc(SCC(=O)Nc2sc3c(c2C(=O)c2ccccc2)CCCC3)s1
    1.15	-1.98
COc1ccccc1N1CCN(S(=O)(=O)CCNC(=O)C2CCCC2)CC1
    0.28	-0.81
COc1ccc(-n2c(SCC(=O)Nc3cccc4ccccc34)nc(O)cc2=O)cc1
    0.2	-0.22
CCCN1C(=O)NC2(O)C(=O)c3ccccc3C12O (centres undefined)
    0.04	-0.07
Oc1c(Br)cc(/C=N/n2c(-c3ccccc3)n[nH]c2=S)cc1Br
    1.11	0.21
CCOc1ccc(NS(=O)(=O)c2ccc(C(=O)NCc3ccccn3)cc2)cc1
    0.58	0.96
O=C(COC(=O)C1CC2C=CC1C2)Nc1cccc(S(=O)(=O)N2CCCCC2)c1 (centres undefined)
    0.91	0.61
NS(=O)(=O)c1ccc(NC(=O)CCCC(=O)O)cc1
    0.15	-0.31
O=C(CC(=O)Nc1ccccc1F)Nc1ccccc1F
    1.09	-1.36
Cc1ccc(-c2csc3nc(C)n(N)c(=O)c23)cc1
    0.86	-0.13
Cc1cc(C)nc(NC(=O)c2ccc(Br)cc2)n1
    2.12	0.76
CCc1ccc(OC)c(S(=O)(=O)Nc2ccccc2C)c1
    0.21	0.42
CCOC(=O)CSc1nnc(-c2ccncc2)o1
    0.51	1.02
CC(C)(C)OC(=O)NCCC(=O)N/N=C/c1cccc2cccnc12
    2.23	-2.21
NC(=O)Cc1ncc(C(F)(F)F)cc1Cl
    0.01	-1.01
CCN(CC)S(=O)(=O)c1ccc(S(=O)(=O)N2CCN(CCC#N)CC2)cc1
    1.41	0.02
CCCc1nc2oc3cc(OC)ccc3c(=O)c2c(=O)n1Cc1ccco1
    1.32	-0.03
COc1ccc(Cl)cc1C(=O)NNC(=O)CN1C(=O)C2CC=CCC2C1=O (centres undefined)
    0.09	0.71
Cc1cc(C(=O)NNC2CC(=O)N(c3ccc4ccccc4c3)C2=O)c(C)o1 (centres undefined)
    1.95	-0.66
Cc1cccc(NS(=O)(=O)c2c(C)[nH]c(C)c2C(=O)N2CCCC2)c1
    0.08	0.05
COc1cc(-c2cc[n+](C)cc2)ccc1O
    0.02	1.49
Cc1ccc(NC(=O)c2ccc(C(C)(C)C)cc2)cc1-n1cnnn1
    1.84	-0.02
C/C=C/C(=O)Nc1cccc(C2=NOC3(C2)C[C@H](C(N)=O)N(C(=O)/C=C/C)C3)c1 (some centres undefined)
    1.59	-1.89
CCn1c(NCc2ccccn2)nc2ccccc21
    0.16	-0.83
COc1cc(NC(=O)Cn2c(C)cc3ccccc3c2=O)cc(OC)c1OC
    0.08	-0.6

(further entries)
Below each compound – KCNQ2 pot	KCNQ2 pot baseline
O=c1c2ccccc2nc(/C=C/c2cccnc2)n1Cc1ccccc1
    0.15	0.8
CN(C)S(=O)(=O)c1ccc(C(=O)Nc2nc(-c3cc4ccccc4o3)cs2)cc1
    0.9	-0.01
O=C(CCS(=O)(=O)c1ccccc1)OCc1ccc([N+](=O)[O-])cc1
    0.36	0.72
COCc1c(C#N)c(NCc2cc(OC)c(OC)c(OC)c2)nc(C)c1[N+](=O)[O-]
    1.3	0.01
CCn1c(N2CCN(S(=O)(=O)CC)CC2)nc2ccccc21
    2.12	-0.85
CC(C)Cn1c(N)c(C(=O)COC(=O)c2cccc(Cl)c2)c(=O)n(C)c1=O
    0.68	-0.11

Arranged by count of non-hydrogen atoms (largest number first): part of the list above
Below each compound – KCNQ2 pot	KCNQ2 pot baseline
CN(C)S(=O)(=O)c1ccc(C(=O)Nc2nc(-c3cc4ccccc4o3)cs2)cc1
    0.9	-0.01
COc1cc(NC(=O)Cn2c(C)cc3ccccc3c2=O)cc(OC)c1OC
    0.08	-0.6
CC(C)Cn1c(N)c(C(=O)COC(=O)c2cccc(Cl)c2)c(=O)n(C)c1=O
    0.68	-0.11
CCn1c(N2CCN(S(=O)(=O)CC)CC2)nc2ccccc21
    2.12	-0.85
